Bioassay records from PubChem BioAssay.
GLA inh pH 4.5 – inhibitors of human alpha-galactosidase A at pH 4.5. activity change, negative = inhibition, % at 105 µM. 230,000 tested, under 10 active. purified enzyme, 4-MU-alpha-Gal fluorescence, pH 4.5; inconclusive = small, poorly fitted or top-dose-only inhibition, or a rising curve; inactive = flat fitted curve, though single readings scatter; no compound was filed as active;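 also: 0% = full activity with enzyme and -100% = basal without enzyme; dose as in the result columns while the protocol names 77 µM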
Target sequence (P06280 whole entry, looked up): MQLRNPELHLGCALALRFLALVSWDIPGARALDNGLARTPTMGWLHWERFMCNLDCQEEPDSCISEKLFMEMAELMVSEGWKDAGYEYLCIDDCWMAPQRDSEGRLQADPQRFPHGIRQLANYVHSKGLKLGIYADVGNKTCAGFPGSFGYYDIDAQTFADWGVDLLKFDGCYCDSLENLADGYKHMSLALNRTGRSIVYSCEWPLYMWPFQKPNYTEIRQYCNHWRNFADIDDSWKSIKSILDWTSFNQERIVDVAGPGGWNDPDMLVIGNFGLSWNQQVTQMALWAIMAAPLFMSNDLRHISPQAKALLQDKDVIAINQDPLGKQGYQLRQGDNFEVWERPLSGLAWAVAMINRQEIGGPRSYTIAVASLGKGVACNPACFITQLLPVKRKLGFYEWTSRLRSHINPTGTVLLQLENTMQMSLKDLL
Rango release inh – inhibition of RanGTP-driven Rango-importin beta dissociation | Biochemical FRET Rango-importin beta, RanGTP-induced dissociation | Potency, µM (titrated, usually from 46.1 µM), for the others: at the top dose activity change, negative = inhibition | 0.071% of 340,000 active | AID 540253; active means falling FRET ratio curve, often poorly fitted, with flat reads before Ran was added; inconclusive means other falling curves, or compound fluorescence or quenching; inactive means flat or rising ratio curve;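 also: potency is read from the fitted curve at half-maximal effect; % of control where 0% means no effect; nearly all actives have a fitted effect of over 45% in size; -100% = wells without RanGTP and RCC1; the record marks most hits as doubtful in a second field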
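Compounds preincubate 5 min with complex of recombinant Rango and importin beta in PBS with 1 mM DTT. Ran (0.6 uM) loaded with 2 mM GTP plus 0.2 uM RCC1 starts dissociation; FRET is recorded 45 min later.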
Rango-impB inh – inhibitors of Rango-importin beta complex formation. Potency, µM (titrated, usually from 92.2 µM), for inactives: top-dose inhibition of complex formation. 0.031% of 340,000 active. Rango CFP/YFP FRET sensor + importin beta, 45 min. AID 540263; active = rising FRET ratio curve, often small or poorly fitted; inconclusive = mostly compound fluorescence or quenching in the first reads; inactive = flat curves in all reads;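 also: potency is read from the fitted curve at half-maximal effect; 0% = DMSO wells and 100% = buffer wells lacking importin beta; nearly all actives have a fitted effect of over 15% in size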
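Inhibition scored from the CFP 486 nm/YFP 530 nm FRET ratio 45 min after adding 0.125 microM importin beta to 50 nM Rango biosensor preincubated 5 min with compound (room temperature, PBS with DTT, Tween-20, BSA). No-importin wells as positive control.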
miR-21 reporter – miR-21 reporter, rising signal; HeLa miR-21 FLuc reporter, luciferase, 48 h; Potency, µM (highest dose often 38.3 µM), without a hit: top-dose reporter change, positive = more light; 340,000 tested, under 10 active; AID 2288; active = well fitted rising curve with a large enough effect; inconclusive = small, poorly fitted or top-dose-only effect; inactive = no such curve, though single readings can be large or run the other way;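 also: % of control where 0% means no effect; miR-21 action dims this reporter so a rising signal means less miR-21 action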
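HeLa cells endogenously expressing miR-21, stably carrying CMV-driven firefly luciferase with a downstream miR-21 binding site, 2000 cells/well. Titrations up to approximately 40 uM, 48 hours; luciferase luminescence read.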
* = called active by the depositor; u = inconclusive; x = not tested or not shown; & = joins results of further samples; [ ] = another dose, or the depositor's remark. These rows are one share of the data (hit frequency here may not be typical).

GLA inh pH 4.5 | Rango release inh | Rango-impB inh | Structure | miR-21 reporter
-2.5 | 1.2% | 0.4% | COc1ccc2c(c1)[nH]c1c(=O)n(Cc3ccco3)cnc12 | -21.6%
x | -1.0% | 3.4% | Cc1n[nH]c(C)c1S(=O)(=O)N1CCN(S(=O)(=O)c2cccc(F)c2)CC1 | x
-1.2 | 2.0% | 6.6% | Cc1c(C2N3CC4(C)CN2CC(C)(C3)C4=O)c2ccccc2n1C (stereo not given) | -0.4%
x | -1.6% | -4.2% | COc1ccccc1CNC(=O)c1ccccc1SCC(=O)NCc1ccco1 | x
-1.8 | -5.6% | -1.4% | Cc1c(C(=O)OCC(C)C)[nH]c2c1C(=O)CC(c1ccco1)C2 (stereo not given) | 13.1%
-4.5 | 8.1% | 1.2% | C/C(N)=C(/C#N)C(=O)CSc1nc2ccccc2c(=O)n1Cc1ccc(C)cc1 | -4.3%
9.6 | 4.5% | -1.9% | CC(C)c1ccc(/C=N/n2nnnc2Nc2ccccc2)cc1 | -0.6%
x | 24.2% | 0.7% | CCOc1ccc(NC(=O)CCn2nc(C)c(S(=O)(=O)N3CCCCC3)c2C)cc1 | 1.9%&0.5%
x | -17.5% | 1.6% | CN(C)c1ccc(C(C(=O)NC2CCCC2)N(C(=O)c2ccco2)C2CC2)cc1 (stereo not given) | -3.6%
1.0 | 0.2% | -0.8% | Cc1nn(C(=O)c2cc3sccc3[nH]2)c(C)c1C | -49.1%
x | -0.4% | u | COc1ccc2oc(C(=O)OCC(=O)NC(C)c3ccccc3)c(C)c2c1 (stereo not given) | -1.1%
1.1 | 5.3% | -1.0% | Nc1cc(-c2ccc(Br)cc2)nn1S(=O)(=O)c1ccccc1 | -10.0%
-9.1 | -11.8% | -0.6% | CCOCc1nc(C)c(Cl)c(NS(=O)(=O)c2ccc(N)cc2)n1 | -0.8%
5.1 | -12.9% | -1.7% | CS(=O)(=O)c1cccc(NC(=O)c2ccc(Cl)c(Cl)c2)c1 | -28.9%
1.1 | 5.2% | 0.0% | C=CCn1c(SCC(=O)Nc2c(C)cccc2C)nnc1-c1ccncc1 | -1.9%
-1.9 | -14.6% | 3.4% | CCOC(=O)C(/C=C(\C#N)C(=O)OCC)=C(/N)N1CCN(c2c(C)cccc2C)CC1 | -4.7%
x | -9.7% | -0.4% | COc1ccc(CNC(=O)C2CCCN(S(=O)(=O)c3cccc4nsnc34)C2)cc1 (stereo not given) | 7.6%&4.9%
x | 19.3% | -0.4% | Cc1ccc(-c2[nH]ncc2C(=O)c2ccccc2C)c(O)c1 | -0.6%
-0.7 | 2.5%&-11.4% | 6.8%&1.3% | C/C(N)=C(/C#N)C(=O)CSc1n[nH]c(-c2ccccc2Br)n1 | -31.6%
4.8 | 8.2% | -1.1% | NC(=O)COC(=O)c1ccc(-c2ccccc2)cc1 | -10.2%
-5.2 | 4.5% | -0.3% | O=C(NCc1ccc(Cl)c(Cl)c1)c1ccco1 | -16.7%
-3.2 | -7.4% | -1.4% | N#CCSc1nnc(COc2cccc3ccccc23)n1-c1cccc(Cl)c1 | 20.4%
x | -11.2% | -3.0% | CN(CCc1ccccc1)C1CCCN(C(=O)Cn2cccn2)C1 (stereo not given) | -2.9%
-9.3 | 21.8% | -4.1% | COc1ccc(-c2csc(N(CCCN(C)C)C(=O)c3cccs3)n2)cc1 | -6.3%
-3.0 | 2.7% | 3.8% | CCN1CCN(C(=O)c2ccccc2N(Cc2ccccc2)S(=O)(=O)c2ccc(OC)cc2)CC1 | 15.4%

The results go on.
GLA inh pH 4.5 | Rango release inh | Rango-impB inh | Structure | miR-21 reporter
-4.4 | -8.4% | -0.7% | CCn1ncc(CN2CCN(Cc3ccc(OC)c(C)c3C)C(CCO)C2)c1C (stereo not given) | 0.1%
4.7 | -1.2% | 4.8% | O=C(CN1C(=O)C2C3C=CC(C3)C2C1=O)NCCC1=CCCCC1 (stereo not given) | -19.5%
-5.7 | -23.5% | u | CCOC(=O)C1=C(c2ccccc2)OC(N)=C(C#N)C1c1ccc(Cl)s1 (stereo not given) | 3.9%
5.8 | -24.6% | u | COc1ccc(-n2c(O)c(C=NCC(c3ccco3)N3CCCC3)c3ccccc3c2=O)cc1OC (stereo not given) | -0.1%
1.1 | 18.5% | 5.7% | CS(=O)(=O)c1ccc(C(=O)NCCN2C(=O)S/C(=C\c3cccnc3)C2=O)cc1[N+](=O)[O-] | u
x | -24.6% | 0.2% | CCCN(CC(=O)Nc1ccccc1C)C(=O)C1CCN(c2ncnc3sc(C)c(C)c23)CC1 | x
-2.1 | -7.9% | -5.3% | Cc1ccc(C)c(NC(=S)NC(NC(=O)N(C)C)C(Cl)(Cl)Cl)c1 (stereo not given) | -0.7%
x | -10.0% | -2.2% | O=C(CCNS(=O)(=O)c1ccccc1C(F)(F)F)N1CCN(S(=O)(=O)c2cccc(F)c2)CC1 | x
x | 15.9% | -2.5% | CN1CCN(c2ccc(NC(=O)c3ccco3)cc2Cl)CC1 | -11.6%
-9.5 | x | x | COc1nccnc1NS(=O)(=O)c1ccc(N=Cc2c(C)[nH]n(-c3ccc(Cl)cc3)c2=O)cc1 | -18.4%
x | 2.4% | -0.4% | COc1cc(C(=O)OC(C)c2ccc(F)cc2)ccc1OCC(=O)N1CCOCC1 (stereo not given) | x
-14.7 | -1.6% | -4.1% | Cc1cc([N+](=O)[O-])cc2c1NC(=O)C2(O)N1CCOCC1 (stereo not given) | 0.9%
x | 11.9% | -1.6% | CCOc1ccccc1CN1CCN(CCCc2ccccc2)CC1CCO (stereo not given) | -0.6%
-9.2 | 15.8% | 1.3% | COc1ccc(CC(=O)N2N=C(C)CC2(O)c2cccnc2)cc1OC (stereo not given) | -1.7%
1.0 | -8.0% | -4.8% | COc1ccc(C(=O)NCCOc2cccc(OC)c2)cc1 | -12.7%
1.7 | -2.2% | -5.4% | CCCCOC(=O)Nc1nnc(COc2ccccc2)s1 | 0.9%
x | -15.2% | -0.9% | CCCCN(C(=O)C1=NN(c2ccccc2)C(=O)CC1)c1c(N)n(CCC)c(=O)[nH]c1=O | x
x | -9.9% | -1.0% | Cc1cccc(-n2c(SC(C)C(=O)O)nc3sc4c(c3c2=O)CCCC4)c1 (stereo not given) | -20.9%
1.2 | 1.5% | 0.3% | CCc1cc2c(=O)c(-c3cscn3)coc2c(CN(C)C)c1O | -6.6%
x | 11.1% | 1.6% | C=CCN(c1ccc(C(=O)NCCCn2ccnc2)cc1)S(C)(=O)=O | 3.4%
5.5 | 2.1% | -0.4% | Cn1c(=O)oc2cc(S(=O)(=O)Nc3ccccc3)ccc21 | -4.5%
x | -10.1% | -2.6% | c1ccc(OCCCCN2CCCCC2)cc1 | -6.1%
-0.3 | -2.0% | -0.3% | C/C(CCC(C)C)=N\NC(=O)COc1ccccc1-c1ccccc1 | 24.0%
x | -12.8% | 0.9% | CSCCC(NC(=O)c1ccccc1Cl)C(=O)N1CCN(C(c2ccccc2)c2ccccc2)CC1 (stereo not given) | 14.6%
-1.1 | -20.2% | 0.3% | COCCN1Cc2cccc(C(=O)Nc3cccc(-c4nc5ccccc5[nH]4)c3)c2C1=O | -7.2%

New compounds follow:
GLA inh pH 4.5 | Rango release inh | Rango-impB inh | Structure | miR-21 reporter
-19.8 | 0.1% | 3.8% | Cc1cc(C(=O)NNC(=O)CCC2CCCCC2)c(C)o1 | -1.6%
x | 4.8% | 0.2% | COc1ccccc1NC(=O)COC(=O)COc1cccc2c1OC(C)(C)C2 | x
-7.5 | 24.9% | -2.5% | CCc1sc(C(=O)N2CCc3ccccc32)cc1C | -48.4%
x | 12.1% | -0.6% | Cc1ccc2c(c1)N(CC(=O)N1CCCCC1C)C(=O)CO2 (stereo not given) | -2.9%
-3.7[21.1 µM] | 27.3% | -2.4% | O=C1CCC(=O)N1c1ccc(NCCc2cccc(F)c2)c([N+](=O)[O-])c1 | -3.4%
x | -11.4% | -0.3% | CC(C)C(=O)N1CCC(n2nccc2NC(=O)CCc2ccccc2)CC1 | 1.7%
-4.5 | u | u | CC1(C)CC(=O)C2=C(C1)N(c1cccc(O)c1)C1=C(C2)C(=O)CC(C)(C)C1 | -2.7%
4.2 | 0.4% | 4.5% | CN(C1=C(N2CCOCC2)C(=O)c2ccccc2C1=O)c1ccccc1 | 2.1%
1.3 | -9.9% | 0.1% | Nc1[nH]nc2ncc3cc4ccccc4nc3c12 | -10.4%
-0.4 | x | x | O=S(=O)(/N=C/c1c(O)ccc2ccccc12)c1cccs1 | 0.7%
x | 15.9% | -4.2% | CN(C)c1ncnc2sc(-c3ccccc3)cc12 | -77.4%
-5.0 | x | x | O=C1CCCC(=O)N1c1ccc(N2CCN(c3ccc([N+](=O)[O-])cc3)CC2)c([N+](=O)[O-])c1 | -12.9%
-1.6 | -15.4% | -2.8% | Nc1cc(C(F)(F)F)ccc1N1CCOCC1 | 4.2%
3.5 | 8.1% | u | CCc1cc2c(=O)c(-c3nc4ccccc4n3C)c(C(C)C)oc2c(CN2CCN(C)CC2)c1O | -6.0%
2.4 | 6.4% | -3.0% | COc1ccc(N2C(=O)C3C4C=CC(C4)C3C2=O)nn1 (stereo not given) | 0.1%
-1.7 | -11.8% | u | CCCc1cc(C(=O)Nc2sc(C(C)=O)c(C)c2C(=O)OCC)no1 | -1.6%
3.2 | -4.4% | 0.7% | COc1ccc(C(=O)N(C)C2CCN(C)CC2)cc1S(=O)(=O)Nc1cc(Cl)ccc1Cl | 3.6%
x | -15.6% | -1.8% | CCOC(=O)c1c(C)[n+](-c2ccc(C)cc2)c(CC)c2cc(OC)c(OC)cc12 | u
x | 17.5% | -0.2% | O=C1c2cccc(Cl)c2C(=O)c2c1cccc2N1CCCC1 | x
x | 0.4% | 0.9% | O=C(c1ccc([N+](=O)[O-])cc1)N1CCOCC1 | x
-7.0 | 0.4% | 1.1% | CNc1nc2c(C)cccn2c(=O)c1C=NCc1ccccc1 | -4.5%
-6.6 | -22.6% | -3.9% | CCOC(=O)N1CCN(C(=O)c2cc(OCC)c(OCC)c(OCC)c2)CC1 | 0.6%
-4.9 | 1.6% | 1.3% | C#CCOCCOCCOCCNc1nc(N2CCN(C(=O)[C@H]([C@@H](C)CC)n3cc([C@@H](N)CO)nn3)CC2)nc(N2CCN(C(=O)[C@H](Cc3ccc(O)cc3)n3cc([C@@H](N)CC(C)C)nn3)CC2)n1 | -3.0%
4.6 | -8.0% | 1.2% | Cc1nn(-c2ccccc2)c(NC(=O)c2cccs2)c(-c2ccccc2Cl)c1=O | -1.1%
x | 17.0% | -3.0% | Cn1cnc2cc(NCc3ccc(Cl)cc3)ccc21 | -35.0%

Results in miR-21 reporter and GLA inh pH 4.5, for 2 of the compounds above:
SMILES | miR-21 reporter | GLA inh pH 4.5
CCOc1ccc(NC(=O)CCn2nc(C)c(S(=O)(=O)N3CCCCC3)c2C)cc1 | 1.9%&0.5% | x
CN(C)c1ccc(C(C(=O)NC2CCCC2)N(C(=O)c2ccco2)C2CC2)cc1 (stereo not given) | -3.6% | x

Additional entries:
GLA inh pH 4.5 | Rango release inh | Rango-impB inh | Structure | miR-21 reporter
-5.1[21.1 µM] | 24.8% | 5.0% | COC(=O)CSc1ccc(S(=O)(=O)N2CCCCCC2)cc1[N+](=O)[O-] | -2.4%
x | -2.8% | 0.1% | COc1cccc(OC)c1C(=O)Nc1ccc(S(=O)(=O)Nc2ncccn2)cc1 | -6.3%
3.3 | x | x | Clc1ccccc1CSc1nncn1-c1cccnc1 | -13.4%
x | 0.1% | -1.9% | O=C(COc1ccccc1)Nc1nnc(-c2ccc(Cl)cc2)o1 | -9.9%
x | 15.7% | -1.3% | O=C(COC(=O)c1c(Cl)cccc1Cl)Nc1cccc(S(=O)(=O)NC2=NCCCCC2)c1 | x
-7.2 | -11.8% | -0.4% | Nc1c(C(=O)c2ccccc2)oc2ccc([N+](=O)[O-])cc12 | -40.7%
-0.1 | 12.3% | -1.7% | c1ccc(-c2ccccc2-n2cnnn2)cc1 | -7.2%
1.1 | -4.4% | 5.2% | O=[N+]([O-])c1cccc(N/N=C/c2cccc(O)c2O)c1 | -63.7%
-15.2 | u | u | O=C(O)c1ccccc1N/N=C/c1c(Sc2nnnn2-c2ccccc2)nc2ccccn2c1=O | -4.5%
6.1 | 0.0% | -3.5% | O=C(Cn1c2[n+](c3ccccc31)CC(O)CS2)c1ccccc1 (stereo not given) | 0.8%
